# Compound activity as filed in PubChem.
# Rango release inh: qHTS Assay for Inhibitors of RanGTP induced Rango (Ran-regulated importin-beta cargo) - Importin beta complex dissociation. AID 540253, 2011. Potency, µM (series often up to 46.1 µM), inactives show at the highest dose activity change, negative = inhibition. 0.071% of 340,000 active. Biochemical FRET Rango-importin beta, RanGTP-induced dissociation; active means falling FRET ratio curve, often poorly fitted, with flat reads before Ran was added; inconclusive means other falling curves, or compound fluorescence or quenching; inactive means flat or rising ratio curve;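 further: potency means the concentration at half of the fitted maximal effect; % of control where 0% means no effect; nearly all actives have a fitted effect of over 45% in size; -100% = wells without RanGTP and RCC1; the record marks most hits as doubtful in a second field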
#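 Rango/importin beta premix (0.1/0.25 uM final), PBS + 1 mM DTT + 0.02% Tween-20 + 0.1% BSA; cpd 5 min RT; FRET pre-read; + RanGTP-RCC1 (0.6 uM Ran, 2 mM GTP, 0.2 uM RCC1); 45 min RT; FRET post-read, ex 430, em 486/530 nm.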
# GLA inh pH 4.5: qHTS Assay for Inhibitors of Human alpha-Galactosidase at pH 4.5 | Alpha-galactosidase A (Homo sapiens), P06280 | purified enzyme, 4-MU-alpha-Gal fluorescence, pH 4.5 | activity change, negative = inhibition, % at 105 µM | 230,000 tested, under 10 active | AID 1467, 2008; inconclusive = small, poorly fitted or top-dose-only inhibition, or a rising curve; inactive = flat fitted curve, though single readings scatter; no compound was filed as active;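 further: 0% = full activity with enzyme and -100% = basal without enzyme; dose as in the result columns while the protocol names 77 µM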
# Target sequence (P06280 whole entry, looked up): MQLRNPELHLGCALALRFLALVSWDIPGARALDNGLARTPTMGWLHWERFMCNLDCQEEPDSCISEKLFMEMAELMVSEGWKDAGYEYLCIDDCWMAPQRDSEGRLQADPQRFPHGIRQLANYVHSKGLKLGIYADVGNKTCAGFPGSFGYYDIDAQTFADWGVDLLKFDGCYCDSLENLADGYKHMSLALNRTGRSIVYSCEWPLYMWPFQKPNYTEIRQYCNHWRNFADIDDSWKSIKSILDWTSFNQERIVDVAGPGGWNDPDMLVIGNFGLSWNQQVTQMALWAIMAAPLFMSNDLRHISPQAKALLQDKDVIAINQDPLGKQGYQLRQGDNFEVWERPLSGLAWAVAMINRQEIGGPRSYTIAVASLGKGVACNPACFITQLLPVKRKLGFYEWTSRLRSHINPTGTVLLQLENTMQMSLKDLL
# Rango complex inh: qHTS Assay for Inhibitors of Rango (Ran-regulated importin-beta cargo) - Importin beta complex formation. Importin subunit beta-1 (Homo sapiens), Q14974. Rango CFP/YFP FRET sensor + importin beta, 45 min. Potency, µM (highest dose often 92.2 µM), for the others: at the highest dose inhibition of complex formation. 0.031% of 340,000 active. AID 540263, 2011; active = rising FRET ratio curve, often small or poorly fitted; inconclusive = mostly compound fluorescence or quenching in the first reads; inactive = flat curves in all reads;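 further: potency means the concentration at half of the fitted maximal effect; 0% = DMSO wells and 100% = buffer wells lacking importin beta; nearly all actives have a fitted effect of over 15% in size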
#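 FRET biosensor (snurportin 1 IBB flanked by EYFP and cerulean), 50 nM, with compound 5 min, then 0.125 microM importin beta in PBS, 1 mM DTT, 0.02% Tween-20, 0.1% BSA. CFP/YFP ratio read after 45 min at room temperature; pre-read flags interference.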
# miR-21 reporter: qHTS Assay for Modulators of miRNAs and/orActivators of miR-21; HeLa miR-21 FLuc reporter, luciferase, 48 h; Potency, µM (doses to about 38.3 µM), without a hit: at the top dose reporter change, positive = more light; 340,000 tested, under 10 active; active = well fitted rising curve with a large enough effect; inconclusive = small, poorly fitted or top-dose-only effect; inactive = no such curve, though single readings can be large or run the other way;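 further: % of control where 0% means no effect; miR-21 action dims this reporter so a rising signal means less miR-21 action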
#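 HeLa miR-21-FLuc reporter line, endogenous miR-21; 2000 cells/well in DMEM/10% FBS; compound titration up to ~40uM final, 48 h, 37 degree Celsius; luciferase detection reagent, 15 min lysis, CCD luminescence.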
# Starred values were filed as active, the others as inactive; ? = inconclusive; . = no result given.
# Values in the order: Rango release inh, GLA inh pH 4.5, Rango complex inh, miR-21 reporter
COCCSc1ccccc1C(=O)Nc1nncs1
 : -10%, 5, -6.8%, -3%
CS(=O)(=O)c1ccc(Cl)c(NC(=O)CCc2ccccc2)c1
 : -1%, -5, -5.8%, 2%
COc1ccc(C(C(=O)NCCC(C)C)N(CCN2CCOCC2)C(=O)Cn2nnc3ccccc32)c(OC)c1 (stereo unspecified)
 : -11%, -3, 3.5%, 0%
CC(N=c1ccccn1C(=O)Nc1cccc(C(F)(F)F)c1)c1ccco1 (stereo unspecified)
 : -7%, 10, 1.1%, -9%
CCC(=O)OCC(=O)Nc1ncc(C(F)(F)F)cc1Cl
 : -8%, 6, ?, -1%
CCOC(=O)c1c(-c2cccs2)csc1NC(=O)CCCC(=O)O
 : -4%, 1, -1.0%, -8%
Nc1ncn(C(=O)c2ccco2)n1
 : 1%, 2, 4.0%, -1%
CC(C)(CO)NCc1cccc(OCc2ccc(Cl)cc2)c1
 : -16%, -3, 0.0%, -30%
Cc1cc(C)cc(OC(=O)CN2C(=O)c3ccccc3C2=O)c1
 : 0%, ., ?, 3%
Cc1cc(C)n(-c2nc3ccccc3nc2N2CCOCC2)n1
 : 10%, 4, 3.2%, -1%
O=C(/C=C/c1ccccc1Cl)N1CCN(c2ncccn2)CC1
 : -24%, -19, 2.6%, -35%
O=C(NCCc1ccccc1)c1ccc([N+](=O)[O-])cc1
 : 0%, 8, -0.4%, 5%
Cc1ccc(C2CC(c3ccco3)n3nc(N)nc3N2)cc1 (stereo unspecified)
 : 1%, 2, 1.2%, -6%
COC(=O)CCCCCN1C(=O)/C(=C\c2ccncc2)SC1=S
 : 11%, -23, -3.0%, 19%
COc1ccc(CNC(=O)c2c(O)c3cccc4c3n(c2=O)CCC4)cc1OC
 : 9%, -5, 2.5%, -1%
COc1cc(OC)cc(C(=O)OCc2cc3ccccc3[nH]c2=O)c1
 : 24%, -3, 0.9%, 3%
Cc1onc(C(=O)NN)c1C(=O)N1CCN(C(c2ccccc2)c2ccccc2)CC1
 : -3%, -8, 0.0%, 0%
Cc1sc2nc(C(C)C)nc(SCC(=O)NC3CC3)c2c1C
 : 0%, ., -0.6%, -7%
Cc1c(-c2cccs2)[n+](=O)c2c(n1[O-])CCCC2
 : -5%, -3, -5.2%, -3%
CCOc1ccc(S(=O)(=O)N2CCC(C(=O)NC3CCCCC3)CC2)cc1
 : 4%, ., 2.1%, 0%
O=C(c1ccc(Cn2cc(Br)cn2)o1)N1N=C(C(F)F)CC1(O)C(F)F (stereo unspecified)
 : -12%, 2, 0.0%, -4%
NC(=S)N1OC[C@@H]2COc3ccc4ccccc4c3[C@@H]21
 : 9%, 14, -2.3%, 27%
C/C(N)=C(/C#N)C(=O)CSc1nc2cc(Cl)ccc2s1
 : 1%, -2, 0.1%, -15%
Cc1ccc(CN2CC(C(=O)N3CCN(S(=O)(=O)c4c(F)cccc4F)CC3)CC2=O)cc1 (stereo unspecified)
 : 36%, ., 1.1%, .
CSc1nsc(SCC(=O)NCc2ccc(C)cc2)n1
 : 0%, ., 1.5%, -3%
Cc1ccc(C)c(S(=O)(=O)N2CCN(C(=O)CN3C(=O)C4CC=CCC4C3=O)CC2)c1 (stereo unspecified)
 : -3%, ., 6.0%, .
CC(NC(=O)c1ccc(N2CCCC2)c([N+](=O)[O-])c1)c1ccc(S(N)(=O)=O)cc1 (stereo unspecified)
 : 18%, ., 1.2%, -17%
COC(=O)c1ccccc1NC(=O)C(CCS(C)(=O)=O)NC(C)=O (stereo unspecified)
 : 0%, -11, 0.4%, 0%
COc1ccc(CNCC2COc3ccccc3O2)cc1 (stereo unspecified)
 : 2%, ., -0.7%, -19%
COCc1cc(=O)[nH]c(/N=C(\N)Nc2c(F)cccc2F)n1
 : 1%, -1, -3.6%, -3%
Nc1cc(=O)[nH]c(=O)n1-c1cccc(F)c1
 : -3%, -4, -2.3%, -1%
Cc1nn(-c2ccccc2)c(Cl)c1/C=N/NC(=O)CNc1n[nH]c(=O)[nH]c1=O
 : ., 4, ., 1%
CCOc1ccccc1NC(=S)N1CCC(c2nc3ccccc3o2)CC1
 : -7%, -3, 3.0%, -9%
O=C(CSc1ccc(S(=O)(=O)N2CCCC2)cn1)Nc1ccc([N+](=O)[O-])cc1C(F)(F)F
 : 8%, ., 5.3%, .
COc1ccc(/C=C/C(=O)NCC(=O)N/N=C(/C)c2ccco2)cc1
 : 8%, ., 0.3%, 0%
O=C(CSc1nnc(NC(=O)c2ccccc2)s1)NCC1CCCO1 (stereo unspecified)
 : 1%, ., -0.2%, -21%
CCOC(=O)C(C#N)=CN1CCN(C(=O)CCCl)c2ccccc21
 : 2%, ., 0.1%, .
COc1cc(NS(=O)(=O)c2c(C(=O)N3CCOCC3)c(C)n(C)c2C)cc(OC)c1OC
 : -1%, ., 0.4%, -4%
COc1cccc(/C=N/c2oc(-c3ccccc3)cc2C#N)c1O
 : -9%, -11, 2.6%, -15%
COC(=O)c1ccc2c(=O)n(Cc3ccc(C(=O)NC4CCCC4)cc3)c(=S)[nH]c2c1
 : 1%, 4, -2.4%, -11%
CCN(C(=O)c1ccc(NC(=O)c2ccco2)cc1)c1ccccc1
 : 4%, ., 2.3%, -1%
COc1ccc(NCC(=O)Nc2cccc(S(=O)(=O)N3CCCC3)c2)cc1Cl
 : 12%, ., 0.8%, .
O=C(COC(=O)c1ccc(S(=O)(=O)NCc2ccco2)cc1)c1ccccc1
 : -1%, 11, -3.0%, -1%
N/C(=N\OC(=O)c1cccc(Br)c1)c1ccncc1
 : 40%, ., 1.7%, -41%
COc1cc(C2c3c(oc4cc(C)c(C)cc4c3=O)C(=O)N2c2cc(C)ccn2)ccc1O (stereo unspecified)
 : 11%, -1, 5.0%, 0%
CCOC(=O)c1c(C)[nH]c(C)c1S(=O)(=O)N(C)CC(=O)Nc1cccc(C)n1
 : 6%, ., 0.2%, -2%
CCc1ccc(NC(=O)C(=O)NNC(=O)COc2cccc(OC)c2)cc1
 : 4%, 8, 2.5%, -15%
COc1ccc(CN(CCCN2CCOCC2)C(=O)Nc2ccccc2)cc1OC
 : -1%, 8, -1.1%, -13%
COc1ccc(C(=O)c2oc3ccc(OC)cc3c2N)cc1
 : ?, -12, ?, -99%
COCCCN1C2=C(C(=O)CC(C)(C)C2)C(c2ccc(O)c(OC)c2)C2=C1CC(C)(C)CC2=O
 : -12%, ., -1.9%, 0%
NS(=O)(=O)c1ccc(N/C=C\C(=O)c2ccc(F)cc2)cc1
 : 3%, -16, ?, -49%
COc1cc(OC)cc(C(=O)Nc2ccc(S(=O)(=O)Nc3cnc4ccccc4n3)cc2)c1
 : 4%, ., -0.2%, .
COCC(=O)N(Cc1cc2ccccc2[nH]c1=O)c1ccccc1OC
 : 5%, 9, 6.7%, -2%
Cc1ccc(C(=O)NCCc2nnc3ccc(SCC(=O)N4CCCC4)nn23)cc1
 : 10%, ., 3.6%, -22%
CCCn1c(N2CCC(Cc3ccccc3)CC2)nc2c1c(=O)[nH]c(=O)n2C
 : 0%, -2, -0.1%, 8%
O=C(COC(=O)CCc1ccccc1)NC12CC3CC(CC(C3)C1)C2
 : 1%, -2, -0.1%, -8%
CCN(CC)S(=O)(=O)c1ccc(C(=O)/C=C/c2ccc(-c3ccc([N+](=O)[O-])cc3)o2)cc1
 : ?, -1, ?, -5%
CCOc1ccccc1NC(=O)CCc1ccc(C)o1
 : 0%, -7, -0.5%, -6%
CCN(CC)Cc1csc(C(N)=O)c1
 : 3%, 0, -0.3%, -3%
O=C(COC(=O)C12CC3CC(CC(Br)(C3)C1)C2)N1CCOCC1
 : -1%, 2, -1.9%, -13%

# Full records, quoted from the list. Order of screens: Rango release inh | GLA inh pH 4.5 | Rango complex inh | miR-21 reporter
# CCOC(=O)c1c(C)[nH]c(C)c1S(=O)(=O)N(C)CC(=O)Nc1cccc(C)n1 reads 6% | . | 0.2% | -2%
# COCCCN1C2=C(C(=O)CC(C)(C)C2)C(c2ccc(O)c(OC)c2)C2=C1CC(C)(C)CC2=O reads -12% | . | -1.9% | 0%
# COc1ccc(/C=C/C(=O)NCC(=O)N/N=C(/C)c2ccco2)cc1 reads 8% | . | 0.3% | 0%
# Cc1ccc(C2CC(c3ccco3)n3nc(N)nc3N2)cc1 (stereo unspecified) reads 1% | 2 | 1.2% | -6%

# The listing picks up; the two compounds before the break are reprinted first.
# Values in the order: Rango release inh, GLA inh pH 4.5, Rango complex inh, miR-21 reporter
CCN(CC)Cc1csc(C(N)=O)c1
 : 3%, 0, -0.3%, -3%
O=C(COC(=O)C12CC3CC(CC(Br)(C3)C1)C2)N1CCOCC1
 : -1%, 2, -1.9%, -13%
Cc1ccc(Cn2c(SCCN3CCCCC3)nc3c2c(=O)n(C)c(=O)n3C)cc1
 : -1%, -9, -1.6%, 2%
CC1Cc2ccccc2N1CC(=O)Nc1ccc2c(c1)OC(F)(F)O2 (stereo unspecified)
 : 1%, -8, 2.0%, 6%
O=C(COc1ccccc1)N1CCN=C1SCc1ccccc1
 : -10%, -4, 2.2%, 1%
N/C(=N\N=C\c1ccco1)SC1CC(=O)N(c2ccccc2)C1=O (stereo unspecified)
 : -13%, 4, -0.8%, 1%
CC/C(=C\c1ccc(N(C)C)cc1)c1ccncc1
 : 2%, ., ?, .
O=C(N/N=C\C=C\c1ccco1)c1cncc(Br)c1
 : -13%, 1, 0.1%, 0%
O=C1NCCCCC1NS(=O)(=O)c1ccccc1 (stereo unspecified)
 : 24%, ., -2.0%, -5%
CC(C)CNC(=O)C1CCN(S(=O)(=O)c2ccc3c(c2)OCCO3)CC1
 : -9%, ., 0.3%, .
CCc1ccccc1NC(=O)CNC(=O)CCNC(=O)Nc1ccccc1
 : -11%, ., 2.9%, .
Cc1ccc(-c2cc(N)nc(-c3ccccc3)c2)cc1
 : -23%, ., -2.3%, -23%
COc1ccc(CCNS(=O)(=O)c2ccc(-c3ccc(=O)[nH]n3)o2)cc1OC
 : -11%, ., -2.0%, -2%
Cc1cc(C)c2c(N)c(C(=O)NCC3CCCCC3)sc2n1
 : ?, 10, ?, -77%
CCOc1ccc(N2C(=O)CC(SCc3nc4ccccc4[nH]3)C2=O)cc1 (stereo unspecified)
 : 0%, -1, 0.2%, -7%
CCn1ccc(C(=O)Nc2cccc(Cl)c2)n1
 : 29%, 0, -0.9%, -52%
CCN(C(=O)COC(=O)COc1ccc2c(c1)CCC2)c1c(N)n(Cc2ccccc2)c(=O)[nH]c1=O
 : -3%, ., 2.4%, .

# Retrieved by structure from the list above (two):
# Values in the order: Rango release inh, GLA inh pH 4.5, Rango complex inh, miR-21 reporter
CC/C(=C\c1ccc(N(C)C)cc1)c1ccncc1
 : 2%, ., ?, .
CC1Cc2ccccc2N1CC(=O)Nc1ccc2c(c1)OC(F)(F)O2 (stereo unspecified)
 : 1%, -8, 2.0%, 6%

# (more compounds)
# Values in the order: Rango release inh, GLA inh pH 4.5, Rango complex inh, miR-21 reporter
O=C(NCCCn1ccnc1)C1c2ccccc2Oc2ccccc21
 : 30%, -3, 3.0%, 0%
COC(=O)c1sc(S(=O)(=O)NCc2ccccc2)c(C(=O)OC)c1C
 : 6%, -1, 0.5%, -7%
Cc1cc(=O)[nH]c(/N=C(\N)Nc2cccc3ccccc23)n1
 : 1%, 1, 6.6%, -2%
O=C(c1cc2cc(Cl)ccc2oc1=O)N1CCOCC1
 : -3%, 1, 1.6%, -8%
CCOc1ccc2nc(NC(=O)C3CCN(c4cnccn4)CC3)sc2c1
 : 2%, 2, 1.1%, 23%
CC1C(=O)CC(c2ccco2)NC1c1ccco1 (stereo unspecified)
 : ., 9, ., 0%
COc1ccccc1-c1n[nH]c(=S)o1
 : -6%, 2, 0.8%, -7%
Cc1ccc(C)c(N(C(=O)c2snc(C(N)=O)c2N)C(C(=O)NCC2CCCO2)c2ccc(C)o2)c1 (stereo unspecified)
 : -3%, ., -5.5%, 21%

# The list is partial; the hit share may differ from the screen's.
